GIRK2 activ – GIRK2 channel activation; P48051; AID 1259325; calls only for hits at 25 µM; HEK293-GIRK2 thallium flux, Thallos fluorescence; actives 0.05% (n = 63,000);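 active = among the strongest 0.2% of first-round signals and kept after retests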;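 also: first round at about 10 µM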
Target sequence (P48051 whole entry, looked up): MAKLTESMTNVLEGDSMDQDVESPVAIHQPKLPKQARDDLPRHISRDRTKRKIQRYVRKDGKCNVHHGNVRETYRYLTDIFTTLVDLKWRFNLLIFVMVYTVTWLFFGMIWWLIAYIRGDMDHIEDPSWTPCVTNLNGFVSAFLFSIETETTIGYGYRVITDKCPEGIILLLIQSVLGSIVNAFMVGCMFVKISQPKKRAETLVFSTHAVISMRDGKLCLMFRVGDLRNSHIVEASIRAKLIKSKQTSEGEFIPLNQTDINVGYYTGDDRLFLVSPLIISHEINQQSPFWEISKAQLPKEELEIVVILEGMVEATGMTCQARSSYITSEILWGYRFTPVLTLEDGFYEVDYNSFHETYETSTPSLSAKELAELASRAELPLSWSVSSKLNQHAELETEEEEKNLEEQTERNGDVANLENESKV
Calls only; i = inactive. An excerpt. The share of hits here may be higher or lower than overall.

SMILES	GIRK2 activ
CC(C)CC(=O)Nc1ccc(-n2cnc(C(=O)NC3CCCCC3)c2)nc1	i
CCOC(=O)c1ccc(NC(=O)C(C)N2C(=O)c3ccccc3S2(=O)=O)cc1 (centres undefined)	i
Cc1ccc(CNS(=O)(=O)c2cc3c4c(c2)CCC(=O)N4CCC3)cc1	i
COc1ccc(Cn2c(=O)c3nccnc3n(CC(=O)Nc3c(C)cc(C)cc3C)c2=O)cc1	i
COc1ccc(/C=C2\Oc3cc(OC(=O)N4CCOCC4)ccc3C2=O)c(OC)c1OC	i
Nc1ccccc1NC(=O)c1ccc(CNc2nccc(-c3cccnc3)n2)cc1	i
COc1ccc(/C=C2\Oc3cc(OCC(=O)O)ccc3C2=O)cc1OC	i
O=C(Nc1ccc(S(=O)(=O)Nc2nccs2)cc1)c1ccc(-n2cccn2)nn1	i

Ordered by number of heavy atoms (highest first): part of the list above.
SMILES	GIRK2 activ
COc1ccc(Cn2c(=O)c3nccnc3n(CC(=O)Nc3c(C)cc(C)cc3C)c2=O)cc1	i
COc1ccc(/C=C2\Oc3cc(OC(=O)N4CCOCC4)ccc3C2=O)c(OC)c1OC	i
Nc1ccccc1NC(=O)c1ccc(CNc2nccc(-c3cccnc3)n2)cc1	i
O=C(Nc1ccc(S(=O)(=O)Nc2nccs2)cc1)c1ccc(-n2cccn2)nn1	i
CC(C)CC(=O)Nc1ccc(-n2cnc(C(=O)NC3CCCCC3)c2)nc1	i
Cc1ccc(CNS(=O)(=O)c2cc3c4c(c2)CCC(=O)N4CCC3)cc1	i

Additional results follow:
SMILES	GIRK2 activ
COC(=O)COc1ccc2c(c1)O/C(=C\c1ccc(C(=O)OC)cc1)C2=O	i
Cc1csc(-c2nnc(NC(=O)C(C)Oc3ccccc3)o2)c1 (centres undefined)	i
Cc1ccccc1N1CCN(c2nccn3c(=O)n(CC(=O)NCc4ccc(Cl)cc4)nc23)CC1	i
CC(c1cc2ccccc2s1)N(O)C(N)=O (centres undefined)	i
O=C(NCCCS(=O)(=O)N1CCN(c2ccccc2F)CC1)c1ccc2c(c1)OCO2	i
Cc1cc(C)n(-c2ccc(=O)n(CCNC(=O)Cc3ccccc3C)n2)n1	i
Cc1cc(C)n(CC(=O)NCCCc2ccccc2)c(=O)c1C#N	i
CCOC(=O)c1c(NC(=O)c2c(C)cnn2C)sc2ccccc12	i
CCOc1ccc(N2CCCn3c2nc2c3c(=O)n(CC(=O)OC)c(=O)n2C)cc1	i
COCCNC(=O)N1CCc2nc(NC(C)=O)sc2C1	i
Cc1cc2c(=O)n(C)c(SCC(=O)NC3CCCCC3)nc2s1	i
Cc1nc(SCc2nc(-c3cccc(Br)c3)no2)[nH]c(=O)c1Cc1ccccc1	i
O=S(=O)(c1ccc(Cl)cc1)N1CCCC(c2nc(-c3ccc4c(c3)OCO4)no2)C1 (centres undefined)	i
O=C(Nc1cnc(Oc2ccccc2)nc1)c1ccc(F)cc1	i
C=CCNC(=O)Nc1nc(-c2cc(OC)ccc2OC)cs1	i
O=C(Nc1ccc(-n2nnc(C(=O)NC3CCCC3)n2)cc1)C(=O)c1c[nH]c2ccccc12	i
COc1ccc(CC(=O)Nc2ccc(-c3ccn[nH]3)cc2)cc1	i
Cc1ccc(NS(=O)(=O)c2n[nH]c(C)c2C(=O)NCc2ccc(C(C)C)cc2)cc1	i
O=C(CCn1cnc2ccccc2c1=O)N1CCC(Oc2ccc(C(F)(F)F)cn2)CC1	i
O=C1/C(=C/c2ccccc2Cl)Oc2c1ccc1c2CN(Cc2ccncc2)CO1	i
Cc1cc(C(=O)NCCn2nc(-c3ccco3)ccc2=O)c(C)o1	i
COc1ccc(OC)c(NC(=O)Cn2ncn3nc(-c4ccc(Cl)cc4)cc3c2=O)c1	i
Cc1cn2c3c(=O)n(C/C=C/c4ccccc4)c(=O)n(C)c3nc2n1C(C)C	i
COc1ccc(-c2nc(Cn3nnc(C(=O)Nc4ccc(F)c(Cl)c4)c3N)c(C)o2)c(OC)c1	i
COc1ccc(S(=O)(=O)c2c(C)cc(C)n(CC(=O)Nc3ccc(C)c(C)c3)c2=O)cc1OC	i
CN(C)c1ncc(NC(=O)c2ccc(C(C)(C)C)cc2)c(N(C)C)n1	i
N#Cc1ccccc1NC(=O)CSc1nccn2nc(-c3ccc(Cl)cc3)cc12	i
COc1cccc(C(=O)NC2CCCC(OC(=O)Nc3ccccc3)C2)c1OC (centres undefined)	i
CC(C)NCC(O)c1ccc(NS(C)(=O)=O)cc1 (centres undefined)	i
Cc1cccc2c1ncn1c(=O)n(CC(=O)Nc3ccc4c(c3)OCCO4)nc21	i
Cc1ccc(C)c(-n2c(C)cn3c4c(=O)n(CCN5CCOCC5)c(=O)n(C)c4nc23)c1	i
O=C(NCCC1=CCCCC1)c1ccc(Nc2nn3c(=O)c4ccccc4nc3s2)cc1	i

By substructure, the entries above with fluorine
SMILES	GIRK2 activ
O=C(NCCCS(=O)(=O)N1CCN(c2ccccc2F)CC1)c1ccc2c(c1)OCO2	i
O=C(Nc1cnc(Oc2ccccc2)nc1)c1ccc(F)cc1	i
O=C(CCn1cnc2ccccc2c1=O)N1CCC(Oc2ccc(C(F)(F)F)cn2)CC1	i
COc1ccc(-c2nc(Cn3nnc(C(=O)Nc4ccc(F)c(Cl)c4)c3N)c(C)o2)c(OC)c1	i

Next section:
SMILES	GIRK2 activ
CNC(=O)CSc1nnc(C)c2cnn(-c3ccc(F)cc3)c12	i
Cc1cc(C)c(S(=O)(=O)Nc2ccc(C)cc2-c2nc3ccccc3[nH]c2=O)c(C)c1	i
COc1ccc(N2CCN(c3nc4c(c(=O)[nH]c(=O)n4C)n3CC(=O)c3ccccc3)CC2)cc1	i
CC(O)(CNC(=O)Nc1cccs1)c1ccco1 (centres undefined)	i
Cn1c(=O)n(CC(N)=O)c(=O)c2c1nc1n2CCCN1Cc1ccccc1	i
CCOC(=O)c1cnn2ccc(NC(=O)c3cccc(OC)c3)cc12	i
COc1cccc2sc(N3CC(OC(=O)c4c(F)cccc4F)C3)nc12	i
Cc1cc(NC(=O)CCS(=O)(=O)c2ccc(F)cc2)n(-c2nc3ccccc3s2)n1	i
O=C(Nc1ccc(O)cc1)C(=O)NC1CCCCCC1	i
COc1ccc(CCC(=O)Nc2ccc(S(=O)(=O)N3CCN(c4cnccn4)CC3)cc2)cc1	i
O=C(NCc1ccc(F)cc1)N1CCN(CC(O)C2CC2)CC1 (centres undefined)	i
Cn1cc(C2=C(c3cc[nH]c3)C(=O)NC2=O)c2ccccc21	i
O=C(COc1ccccc1F)NCC#CCOc1cccc(C(F)(F)F)c1	i
CSc1nc2ccc3nc(NC(=O)CCCS(=O)(=O)Cc4ccccc4)sc3c2s1	i
CCOc1cccc(-c2noc(Cn3c(=O)n(-c4ccc(OC)cc4)c(=O)c4sccc43)n2)c1	i
COc1cccc(Oc2c(C)nc(N)nc2-c2ccc(OC)cc2O)c1	i
O=C(c1cc2ccccc2oc1=O)N1CCC(Cn2cccn2)CC1	i
CC(=O)c1cccc(NC(=O)c2csc(Nc3ccc(S(C)(=O)=O)cc3)n2)c1	i
COc1cccc(CC(=O)NCC(O)c2ccoc2)c1 (centres undefined)	i
O=C(Cc1ccccc1Cl)N1CCN(c2cc(-c3ccccc3)ncn2)CC1	i
Cc1nc(-c2nnn(-c3ccc(F)cc3)c2C)sc1C(=O)N1CCN(c2ccccc2)CC1	i
O=C(Nc1nc2c(s1)CN(C(=O)c1cnn(-c3ccccc3)n1)CC2)C1CCCO1 (centres undefined)	i
Cc1ccc(-c2nc3c(c(=O)n2CC(=O)NCCc2ccccc2)CCN(Cc2ccccc2)C3)cc1	i
Cc1cn2c3c(=O)[nH]c(=O)n(C)c3nc2n1-c1ccccc1N	i
C=CCn1c(=S)[nH]c2cc(C(=O)NCc3ccco3)ccc2c1=O	i
O=C(c1ccc(S(=O)(=O)Nc2cccnc2)o1)N1CCCc2ccccc21	i
COc1cc(S(=O)(=O)N2CCCC(C)C2)c(C)cc1Br (centres undefined)	i
CCOc1ccc(C(=O)Oc2c(S(=O)(=O)c3ccc(C)cc3)c(C)nn2C(C)(C)C)cc1	i
Cc1ccc(CSC2=NCCN2S(=O)(=O)c2ccc(Br)cc2)cc1	i
O=C(NCC1(c2ccc(F)cc2)CC1)c1nc2ccccc2s1	i
COc1ccc(CNC(=O)c2[nH]c3ccccc3c2NC(=O)c2cccc(C)c2)c(OC)c1	i
COC(=O)c1ccc(NC(=O)C(=O)NCCC(O)c2cccs2)cc1 (centres undefined)	i
COc1ccccc1NC(=O)Cn1c2c(cc(C#N)c1=O)C(=O)CC(C)(C)C2	i
COc1cc(OC)c(NC(=O)COc2cc(C)nc(-c3ccc(C)cc3)n2)cc1Cl	i
O=C(CSc1nc2c(-c3ccccc3)c[nH]c2c(=O)n1C1CC1)Nc1ccc2c(c1)OCCO2	i
CCOc1ccc(NC(=O)Cn2cc(C(=O)N3CCCC3)c(=O)c3ccc(C)nc32)cc1	i
CCc1ccccc1NC(=O)Nc1ccc(Nc2cc(-n3cccn3)ncn2)cc1	i
COc1ccc(-c2csc(-n3nc(C)cc3NC(=O)c3c(F)cccc3Cl)n2)cc1	i
Cc1cc(C)nc(NC(=O)c2ccc(Cl)c(S(=O)(=O)N3CCOCC3)c2)n1	i
Cc1ccc(C)c(S(=O)(=O)NCc2ccc(C(=O)NCCc3ccccc3)cc2)c1	i
COc1cccc(C(=O)Nc2cc(C)nn2-c2nc(-c3ccc4c(c3)OCO4)cs2)c1	i
CCc1cccc(OCC(O)Cn2c(N3CCCCCC3)nc3c2c(=O)n(C)c(=O)n3C)c1 (centres undefined)	i
Clc1ccc(-n2ncc3c2ncn2nc(C4CCCCC4)nc32)cc1	i
CCOc1c(C)cc(S(=O)(=O)NCC(O)(c2ccccc2)C2CC2)cc1C (centres undefined)	i
O=c1[nH]c2nc(NCCC3=CCCCC3)ncc2c(=O)n1C1CCCC1	i
COc1ccc(CNC(=O)C(=O)Nc2cc(C)nc3ccccc23)cc1	i
N#Cc1c(N)nc2c(C(N)=O)c(Nc3ccccc3)sc2c1-c1ccccc1	i
O=C(CN1CCN(Cc2nc3ccccc3n2Cc2ccccc2)CC1)NCc1ccco1	i
COc1cccc(NC(=O)c2ccc(S(=O)(=O)N3CCc4ccccc4C3)cc2)c1	i
CC(O)Cn1c(N2CCOCC2)nc2c1c(=O)n(C)c(=O)n2C (centres undefined)	i
COC(=O)c1sccc1S(=O)(=O)NC1CCCC(OC(=O)Nc2ccccc2)C1 (centres undefined)	i
COc1ccccc1N1C(=O)N(c2ccc(Br)cc2)C2CS(=O)(=O)CC21 (centres undefined)	i
O=C(Nc1ccccc1Cl)c1nnn(-c2ccccc2)c1-c1ccccc1	i
Cc1ccc(C)c(S(=O)(=O)N2CCC(C)CC2)c1	i
O=C(CN1C(=O)CCC1=O)NCc1ccc(C(=O)c2cccs2)s1	i
OC(CNC1CCCC1)COc1cccc2ccccc12 (centres undefined)	i

Carrying on:
SMILES	GIRK2 activ
Cc1ccnc(Nc2cc(N3CCN(C(=O)Nc4cccc(F)c4C)CC3)nc(C)n2)c1	i
COc1cccc(-c2noc(Cc3nnc(-c4ccc(F)cc4)o3)n2)c1OC	i
CCSc1nccn2nc(-c3cccc(Cl)c3)cc12	i
CCOC(=O)Cn1c(=O)c2c(nc3n(-c4cccc(C)c4C)c(-c4ccccc4)cn23)n(C)c1=O	i
COCCNC(=O)CCn1cnc2c([nH]c3ccccc32)c1=O	i
COc1ccc(-c2noc(-c3cccn(CC(=O)Nc4cc(F)ccc4C)c3=O)n2)cc1OC	i
COCCN(Cc1ccsc1)C(=O)Nc1ccccc1C(F)(F)F	i
Cc1nnsc1C(=O)NCc1sc2nc(-c3ccc(F)cc3)cn2c1C	i
CCn1c(-n2nc(C)cc2C)nc2c1c(=O)n(Cc1ccc(OC)cc1)c(=O)n2C	i
O=C(Nc1ccc2c(c1)CCC2)c1cn(-c2cccc(Cl)c2)nn1	i
Cc1nc(N2CCCC2)cc(N2CCN(C(=O)c3cc(-c4ccc(F)cc4)n[nH]3)CC2)n1	i
CCOCCCN1COc2ccc3c(=O)c(Oc4cccc(OC)c4)c(C)oc3c2C1	i
COc1cccc(-c2noc(CSc3nc(-c4cccnc4)cc(=O)[nH]3)n2)c1OC	i
CN(C)C(CN)c1cccs1 (centres undefined)	i
Cc1nc(-c2ccccc2)cc2nn(CC(=O)N3CCc4ccccc43)c(=O)n12	i
CC(C)(C)c1ccc(C(=O)Nc2ccc(-n3nnc(C(N)=O)n3)cc2)cc1	i
COc1ccc(-n2nnc(C(=O)NC3CCCCC3)c2C2CC2)cc1	i
CC(=O)NCC(=O)N1[C@@H]2CC[C@H]1c1ccc(Nc3ncc(C(F)(F)F)c(NC4CCC4)n3)cc12	i
CCOC(=O)CCC(=O)N1CCN(CCn2cccn2)CC1	i
CCCS(=O)(=O)N1CCc2ccc(NC(=O)C3(c4ccc(OC)cc4)CCOCC3)cc2C1	i
Cc1ccc(Cl)cc1N1CCN(S(=O)(=O)c2nn(C)cc2C(=O)NC2CCC(C)CC2)CC1 (centres undefined)	i
Cc1ccc(N2CC(C)Cn3c2nc2c3c(=O)n(CC(N)=O)c(=O)n2C)cc1Cl (centres undefined)	i
O=c1ccc2ccc(OCc3ccc(F)cc3)cc2o1	i
CCOc1ccc(-c2cc3c(=O)n(CC(=O)Nc4ccc(C)c(C)c4)ccn3n2)cc1	i
Cc1ccc(Cn2c(=O)c3c(nc4n(-c5ccc(S(N)(=O)=O)cc5)c(C)cn34)n(C)c2=O)cc1	i
COc1ccc(-c2cc3nc(C)cc(=O)n3[nH]2)cc1OC	i
CC1CCC(NC(=O)C2CCN(c3nc4c(-c5ccccc5F)csc4c(=O)[nH]3)CC2)CC1 (centres undefined)	i

Bioassay records deposited in PubChem by Vanderbilt University.
